Screening data (PubChem)
Sa RN4220 lethal: growth inhibition of S. aureus RN4220, primary screen, OD600; 330,000 compounds, 0.33% hits; AID 1259311, 2017; inhibition, % (concentration not given with the values); 16 h;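 active = z-score of -3 or lower and OD600 up to 0.18 on both plates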;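 also: plate controls were untreated cells for no effect and reference antibiotic for full effect; stock transfer was 100 nL into about 80 µL; one replicate is shown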
Bead autofluor: counter-screen for toxin protease inhibitors: compound fluorescence. fluorescence intensity (test concentration not listed). compound autofluorescence counterscreen, microsphere flow cytometry; hits give high values. 360,000 compounds, 3.1% hits. AID 624483;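 active = at least 3 SD above the mean of all compounds, about 16000 in these data; inconclusive = too few beads counted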;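 also: 100 nL of 1 mM stock went into each well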
PrP 5UTR inh: inhibition of PrP 5' UTR reporter expression | cell-based PrP 5' UTR mRNA reporter, plate reader | inhibition, % (no concentration beside the values) | 340,000 compounds, 0.35% hits | AID 488862, 2010;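 active = every replicate at 50% or more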;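 also: 0 = median of the neutral control wells; tested in H4 reporter cells; numbers are from one replicate; inactives centre near -14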
Sa ugtP lethal: growth inhibition of ugtP-null S. aureus, primary screen, RN4220 ugtP deletion, OD600 | AID 1259309, 2017 | growth inhibition, % (no concentration beside the values) | 330,000 compounds, 0.54% hits | 16 h; some inactives read as strong as hits;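 active = z-score under -3 and OD600 up to 0.15 on both plates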;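 also: plate controls were untreated wells for no effect and antibiotic for full effect; wells of about 80 µL received 100 nL stock; the first replicate is given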
Mtb hypoxia rep: PubChem AID 1159583; 300,000 compounds, 0.1% hits; fluorescence inhibition, % (concentration not given with the values); M. tuberculosis hypoxia-regulated fluorescent reporter, fluorescence;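 active = 35 to 45% if threefold the growth effect, above 45% if 1.5-fold the growth effect; inactive = the rest, general growth blockers included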;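 also: wells of about 50 µL received 100 nL stock; 0% = vehicle wells and 100% = reference inhibitor wells; whole bacteria with a GFP reporter of the hypoxia response; strong numbers were not always called active; many hits fall short of the cut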
BJeLR viability: MLPCN primary cell-based screen for lethality selective to Ras in HRASV12 cells. BJeLR (HRASV12) viability, CellTiter-Glo ATP luminescence, 48 h; reference of the scale not given here. inhibition, % (concentration not given with the values). 300,000 compounds, 0.17% hits;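 active = replicate mean above 50%; inconclusive = above 50% but judged a plate artefact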;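 also: 50 nL library stock added to about 25 µL; numbers are from one replicate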
Mtb hypoxia rep growth: also measured in Mtb hypoxia rep; calls as there; growth inhibition, %; measured here: M. tuberculosis growth (absorbance);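 0% = vehicle and 100% = reference antibiotic; read after six days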
* hit, by the source's call; ? = inconclusive; nt = not tested or not shown.

canonical_smiles	Bead autofluor	Mtb hypoxia rep growth	BJeLR viability	Sa ugtP lethal	PrP 5UTR inh	Sa RN4220 lethal	Mtb hypoxia rep
O=C(C1CCCN1S(=O)(=O)c1ccc(Cl)c(Cl)c1)N1CCCCC1 (stereo unspecified)	2409	nt	-1.2	-7.9	-27.0	-0.5	nt
CCN1CCc2c(sc(NC(=O)COc3ccccc3)c2C(=O)OC)C1	6187	-7.8	7.4	3.7	-8.2	2.4	-1.7
O=S(=O)(c1ccccc1Br)N1CCN(c2ncccn2)CC1	3455	7.6	-1.6	9.5	-41.3	1.0	12.0
CS(=O)(=O)N(CC(=O)NCCSCc1cccc(Cl)c1)c1ccc2c(c1)OCO2	5083	nt	-5.3	-12.6	-8.4	1.3	nt
Cc1cccc(NCC(=O)NN=Cc2ccc(Br)cc2)c1	nt	0.2	nt	-4.3	nt	1.3	8.8
Cc1cc2c(N=NC(=O)CCc3ccccc3)c(O)[nH]c2cc1Br	1933	3.8	4.3	-26.5	-10.1	10.6	5.9
COc1ccc(S(=O)(=O)N(CC(=O)NCC2CCCO2)c2ccccc2)cc1OC (stereo unspecified)	3814	nt	7.6	2.5	0.9	1.1	nt
CCn1c(SCC(=O)N/N=C/c2ccc(C)o2)nnc1-c1ccccc1	22380*	nt	-4.4	nt	-1.9	nt	nt
CCOc1ccc(NC(=O)[C@@H](NC(=O)c2ccco2)C(C)C)cc1	4128	-3.8	-4.5	3.0	-22.4	1.2	12.1
Cc1cc(C2C(C#N)=C(N)SC(N)=C2C#N)c(C)s1	4324	nt	6.6	nt	0.5	nt	nt
O=C(NCCCN=C1NS(=O)(=O)c2ccccc21)c1ccncc1	8340	8.6	18.3	8.3	-12.9	3.0	7.5
COC(=O)CCC(=O)Nc1ccccc1C(N)=O	11180	-13.4	-7.6	-8.2	-20.5	1.4	-3.0
CCOC(=O)c1nn(-c2ccc(C)cc2)c2nc(Nc3ccccc3)cc(=O)n12	3231	6.6	2.0	-18.9	-23.2	-15.7	17.9
N/C(=N\OC(=O)C12CC3CC(CC(C3)C1)C2)c1cccnc1	9199	4.1	0.2	-4.2	1.4	1.9	-2.2
Cc1cccc(CN2CCN(C(=O)c3ccccc3F)CC2)c1	4673	nt	4.1	-0.2	-30.3	1.7	nt
Cc1c(NC(NC(=O)CF)C(Cl)(Cl)Cl)c(=O)n(-c2ccccc2)n1C (stereo unspecified)	3634	17.4	8.1	-6.5	-1.8	2.8	6.7
OCC1(CCc2ccccc2)CCN(Cc2cc(Cl)ccc2O)CC1	4250	nt	12.4	nt	-21.4	nt	nt
CN(C)Cc1c(OC(=O)c2ccc(N)cc2)ccc2ccccc12	3672	23.2	nt	2.9	-11.3	2.7	16.5
COC(=O)c1ccccc1NC(=O)COc1ccc2c(c1)OCO2	6190	-11.2	2.3	-2.6	-27.9	1.1	-11.7
Cc1oc2c(CN3CCCC(C)C3)c(O)ccc2c(=O)c1-c1ccccc1 (stereo unspecified)	3716	9.4	16.2	1.8	3.3	2.9	4.2
O=c1n(-c2ccccc2)c(=O)n2n1CC(O)C2	4135	2.9	-0.2	-1.0	-11.3	-0.4	-1.8
O=C(C1CC(=O)N(c2ccc3c(c2)OCCO3)C1)N1CCN(c2cccc(C(F)(F)F)c2)CC1 (stereo unspecified)	?	3.9	2.3	-5.8	-11.0	-1.5	-3.0
CCN1C(=O)/C(=C\N2CCN(c3ccc(F)cc3)CC2)SC1=S	16210*	0.1	-8.3	-18.3	3.7	1.7	-3.0
O=C(Nc1ccc(C(F)(F)F)cc1)C1(c2ccccc2)CC1	2432	0.9	4.7	7.1	-5.1	3.8	18.6
CC(C)Oc1ccc(Cc2c(O)[nH]c(=O)[nH]c2=O)cc1	nt	0.8	6.3	-1.1	nt	-2.8	-5.3
Cn1c(N)c(C(=O)c2cc(-c3ccccc3)nc3ccccc23)c(=O)n(C)c1=O	4318	nt	4.6	-5.5	-28.8	1.4	nt
COc1cc(OC)cc(C(=O)N[C@H](C(=O)OCC(=O)NC(=O)NC(C)(C)C)C(C)C)c1	4715	12.5	-7.0	4.5	-14.9	6.2	-6.3
Cc1ccc(C)c(NC(=O)c2cnn(-c3ccccc3)c2C)c1	3756	1.5	4.0	6.7	-33.6	1.3	1.3
Cc1nn(Cc2ccccc2)c(C)c1NC(=O)c1cc(-c2cccs2)on1	16449*	10.7	1.4	2.1	-1.3	4.7	8.8
CCN(CC)C(=O)c1c(C)[nH]c(=S)c(C#N)c1-c1ccco1	4240	1.5	2.1	-2.4	-44.8	5.2	-3.2
CCCCN(C(=O)c1ccco1)c1c(N)n(CCC)c(=O)[nH]c1=O	2921	72.0*	nt	4.5	-0.9	2.5	28.1*
COc1ccc(NC(=O)c2noc3c2CCCCC3)cc1	4132	-4.0	-6.2	-1.2	-55.5	4.4	5.0
Cc1cc(N2CCCCC2)n2nc(C)c(-c3ccccc3)c2n1	4837	nt	-3.1	6.5	-9.8	-2.6	nt
c1ccc2c(c1)[nH]c1c(N3CCCC3)ncnc12	2761	nt	0.6	-10.1	-24.0	6.0	nt
CC[C@]1(C(=O)OC)[C@H]2C(=O)N(C)C(=O)[C@H]2[C@H]2CN=C(SC)N21	3883	2.4	nt	2.6	-19.9	1.8	-5.0
CC(C)C(=O)NNC(=O)CC(=O)Nc1ccccc1C(=O)O	5133	-6.3	-12.2	-0.7	-20.1	3.3	1.8
CC1CCN(CCCNC(=O)c2ccc(CSCc3cccc(Cl)c3)o2)CC1	11789	14.0	3.7	-5.3	-11.2	2.8	9.0
CNC(=O)c1c(NC(=O)CCS(=O)(=O)c2ccc(C)cc2)sc(C)c1C	nt	2.4	-6.4	4.3	-11.4	5.5	0.1
CCCCC(CNC(CNC)C(C)CC)NCCC12CCC(CC1)C2 (stereo unspecified)	nt	22.5	nt	-6.9	nt	-4.5	14.9
O=C(NCC(c1ccco1)N1CCc2ccccc2C1)c1ccc([N+](=O)[O-])cc1 (stereo unspecified)	5975	-0.5	1.2	5.0	-33.2	-3.2	-1.9
COc1ccc(OC)c(NC(=O)C2CC(/C=C/c3ccccc3)=NO2)c1 (stereo unspecified)	3606	11.3	-1.4	14.7	-11.4	-0.8	10.7
O/N=C(\c1ccc(Cl)cc1)c1ncc(C(F)(F)F)cc1Cl	3074	nt	-0.4	nt	2.6	nt	nt
CSc1nnc(-c2ccccc2)o1	7954	5.4	-0.7	10.9	-40.5	6.4	7.2
O=C(NCc1cccnc1)c1ccc(-c2cccc(Cl)c2Cl)o1	2712	-3.2	-4.2	-4.5	-16.8	-2.1	1.0
Cc1cc(NS(=O)(=O)c2ccccc2)ccc1NS(=O)(=O)c1ccccc1	3783	2.9	nt	-4.9	-29.1	2.7	1.6
CN(C)c1ccc(NC2=C(Cl)C(=O)c3ccccc3C2=O)cc1	2263	8.7	nt	9.4	-15.6	23.9	15.8
CC(=O)N1c2ccc(S(=O)(=O)NCCC(=O)NCCc3ccc(Cl)cc3)cc2CC1C (stereo unspecified)	5521	7.6	0.5	5.5	-5.1	2.4	2.2
Cc1ccc(OCC(=O)N/N=C/c2cccnc2)cc1C	3158	nt	-1.3	nt	-29.1	nt	nt
S=C(Nc1cccc(Br)c1)N1CCn2cccc2C1c1cccnc1 (stereo unspecified)	4178	6.8	1.1	7.0	-12.1	0.6	2.6
CC(CC(=O)Nc1cccc(Cl)c1Cl)=NNC(=O)c1ccccc1N	nt	-1.0	nt	-7.6	nt	4.5	2.1
Cn1c(=O)c2c(nc(NCCCO)n2Cc2cccc(C(F)(F)F)c2)n(C)c1=O	3386	9.4	0.4	-8.8	-12.2	-8.5	6.9
COC(=O)N=C(Cc1ccc(OC)cc1)c1ccc(OC)cc1	nt	5.6	nt	-1.2	nt	1.6	15.0
Cc1cccc(/C=N/NC(=O)c2cccc(NC(=O)c3ccccc3)c2)n1	4271	nt	3.6	nt	-7.6	nt	nt
CN(CCCN1CCOCC1)C(=O)c1cc(COc2c(F)cccc2F)on1	?	-1.1	4.6	-6.6	-6.8	-2.1	-8.9
Cc1ccc(Cn2cccc2C2=NC(C)CO2)cc1 (stereo unspecified)	7657	4.4	8.1	4.9	-22.8	1.7	6.1
CCn1c(SCC(N)=O)nnc1-c1ccc2[nH]c(C)c(C)c2c1	9170	0.2	-5.7	-5.0	-29.8	2.6	2.1
COc1ccc(C(CC(=O)Nc2ccc(C)cn2)N2Cc3ccccc3C2=O)cc1 (stereo unspecified)	3112	-2.5	-6.1	17.7	-19.5	1.2	6.1
Cc1ccc(NC(=O)c2ccc(S(=O)(=O)N3CCCCC3)cc2)nc1	4096	3.3	nt	5.2	-19.7	4.2	7.0
CC(=O)c1cccc(NC(=O)c2ccc(N(Cc3ccccc3)S(C)(=O)=O)cc2)c1	10444	3.7	-4.2	3.5	-19.2	0.7	17.0
COc1cccc(N(C(=O)CNC(=O)c2ccco2)C(C(=O)NC2CCCC2)c2ccncc2)c1 (stereo unspecified)	3983	nt	1.4	6.6	-10.0	-0.9	nt

Remaining list, next part
canonical_smiles	Bead autofluor	Mtb hypoxia rep growth	BJeLR viability	Sa ugtP lethal	PrP 5UTR inh	Sa RN4220 lethal	Mtb hypoxia rep
O=S(=O)(N=C(Nc1cccc2ccccc12)c1ccccc1)c1cccs1	nt	8.0	nt	4.0	nt	2.6	-6.0
Cc1cccc(N(C)C(=O)c2cc3cc4ccc(C)cc4nc3o2)c1	3790	10.5	3.1	4.0	-50.6	3.2	6.7
Cc1ccc(-c2noc(CN(C(=O)C34CC5CC(CC(C5)C3)C4)C(C)C)n2)cc1	22906*	16.2	-4.2	-3.5	-10.2	1.0	6.0
Cc1nc2c3ccccc3n(CCN3CCCCC3)c2s1	nt	-4.9	-9.4	3.3	nt	3.3	-1.7
CCc1nnc(SCC(=O)Nc2ccccc2)nc1CC	12310	6.5	-7.1	2.2	-15.3	3.8	8.4
O=C(Nc1nnc(SCC(=O)N2CCCCC2)s1)c1cccs1	4283	19.0	-9.1	-13.6	-6.2	2.3	1.3
C[C@@H]1C(c2ccc(F)cc2)=NN(c2ccc(Br)cc2)[C@H]1C(=O)N1CCOC1=O	3432	7.0	nt	24.1	-23.5	-7.0	5.3
COc1cccc(/C=C/C(=O)N2CCN(c3ccccn3)CC2)c1	4487	0.0	-9.1	15.8	-19.6	3.0	14.3
COC(=O)c1nnn(CC(=O)Nc2cccc(Cl)c2C)c1C(=O)OC	4562	-12.3	-3.8	3.4	-2.4	6.8	-8.3
CCC(C(=O)c1ccc2ncccc2c1)c1ccccc1 (stereo unspecified)	2678	5.3	6.6	-7.3	-15.1	5.2	14.2
CCC(=O)c1ccc2c(c1)N(CCCN(C)C)c1ccccc1S2	5565	12.8	2.3	-6.8	-24.8	7.9	12.1

In the list so far, these contain a thiophene ring, fused or not.
canonical_smiles	Bead autofluor	Mtb hypoxia rep growth	BJeLR viability	Sa ugtP lethal	PrP 5UTR inh	Sa RN4220 lethal	Mtb hypoxia rep
CCN1CCc2c(sc(NC(=O)COc3ccccc3)c2C(=O)OC)C1	6187	-7.8	7.4	3.7	-8.2	2.4	-1.7
Cc1cc(C2C(C#N)=C(N)SC(N)=C2C#N)c(C)s1	4324	nt	6.6	nt	0.5	nt	nt
Cc1nn(Cc2ccccc2)c(C)c1NC(=O)c1cc(-c2cccs2)on1	16449*	10.7	1.4	2.1	-1.3	4.7	8.8
CNC(=O)c1c(NC(=O)CCS(=O)(=O)c2ccc(C)cc2)sc(C)c1C	nt	2.4	-6.4	4.3	-11.4	5.5	0.1
O=S(=O)(N=C(Nc1cccc2ccccc12)c1ccccc1)c1cccs1	nt	8.0	nt	4.0	nt	2.6	-6.0
O=C(Nc1nnc(SCC(=O)N2CCCCC2)s1)c1cccs1	4283	19.0	-9.1	-13.6	-6.2	2.3	1.3
